NPYLR7 agonist: activates Aedes aegypti NPYLR7 receptor | HEK293T NPYLR7/Galpha15, GCaMP6s calcium fluorescence | activation, % at 10 µM | hit rate 0.15% among 270,000 | AID 1259423; in the data active means activation above about 40%;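 further: 0% = vehicle and 100% = reference agonist at the receptor; some compounds past the cut are filed as inactive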
NPYLR7 agonist max-min: recorded beside NPYLR7 agonist, whose call it bears; activation, %; measured here: Max-Min RFU normalised activation; some inactives read as strong as hits;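 span of the calcium signal over five minutes; 0% = vehicle and 100% = native peptide agonist; compound fluorescence can raise it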
* hit, by the source's call.

1) O=C1NC(=O)C2(CCN(C(=O)c3ccc(Br)s3)CC2)N1
2) COc1ccccc1CC1(C)C(=O)Nc2c(Cl)ccc(Cl)c21 (stereo not drawn)
3) O=C(NCCN1CCCC1)c1cc2n(n1)CCN(Cc1ccccc1F)C2=O
4) COc1cccc(OCc2ccccc2)c1C(=O)NC(c1ccccc1)c1ccccc1
5) CC(=O)NCCC1CN(Cc2ccc(-c3ccccn3)cc2)CCO1 (stereo not drawn)
6) CCCN(CC(=O)Nc1cc(C(C)(C)C)nn1-c1ccc(Cl)c(Cl)c1)C(=O)Nc1ccc(SC)cc1
7) O=C(c1ccccc1C1CCNC1)N1CCOC2(CCCC2)C1 (stereo not drawn)
8) O=C(NC(=S)Nc1cccc2c(O)cccc12)C1CCCC1
9) COCc1nc2n(n1)CCCC2NC1CCCN(C(C)C)C1=O (stereo not drawn)
10) O=C(CN1C(=O)NC2(CCCCCCC2)C1=O)NC(=O)NC1CCCC1

Compound,1,2,3,4,5,6,7,8,9,10
NPYLR7 agonist,-5.2,11.8,-0.7,-1.3,2.4,18.5,6.7,3.1,1.3,2.9
NPYLR7 agonist max-min,-5.1,10.5,-0.2,-5.7,-0.5,25.1,4.2,2.7,2.6,7.8

11) Cc1c(C(=O)NCCc2ccc(S(N)(=O)=O)cc2)sc2nc(-c3cccc([N+](=O)[O-])c3)cn12
12) COc1cccc(CSc2nnc(CNC(=O)Cc3ccc(F)cc3)n2-c2ccc(Cl)cc2Cl)c1
13) COc1ccc(N(Cc2cccs2)C(=O)Cn2cc(Br)ccc2=O)cc1
14) CNC(=O)c1[nH]nc2c1C(c1c(Cl)nc3sccn13)CC(=O)N2 (stereo not drawn)
15) OCC1(Cc2ccccc2)CCCN(Cc2cccc3cccnc23)C1 (stereo not drawn)
16) O=C1C(=O)N(CCN2CCOCC2)C(c2cccc([N+](=O)[O-])c2)C1=C(O)c1ccccc1 (stereo not drawn)
17) O=C(O)CCCC(=O)NNC(=O)c1cc(Cl)ccc1O
18) CC(NC(=O)C1CCCN(S(=O)(=O)c2ccc(Br)cc2)C1)C1CC1 (stereo not drawn)
19) CC(C)CCN1C(=O)N(CC(N)=O)C(=O)C12CCN(C/C=C/c1ccc(N(C)C)cc1)CC2
20) O=C(NCCc1csc2nc(-c3cccs3)nn12)c1ccc(F)cc1

Compound,11,12,13,14,15,16,17,18,19,20
NPYLR7 agonist,3.3,-0.1,2.9,16.1,-3.3,2.1,-9.8,14.5,15.6,-3.3
NPYLR7 agonist max-min,-1.3,5.3,0.4,12.1,-4.7,3.5,-14.4,13.0,5.0,-1.5

21) CC(=O)N1CCC(N(C)Cc2nc(CC(C)C)no2)CC1
22) Cc1cccc(-n2cc(CN3CCCN(c4ncccn4)CC3)c(-c3cccc(F)c3)n2)c1
23) O=C(CN1CCSCC1CCO)Nc1c(Cl)cccc1Cl (stereo not drawn)
24) Cc1cc(C)nc(NC(N)=S)n1
25) CCN1CCN(Cc2nc3c(c(=O)n(C)c(=O)n3C)n2Cc2ccc(C)cc2)CC1
26) CNC(=O)C1CCC(NC(=O)NC(c2ccccc2)C(C)C)CC1 (stereo not drawn)
27) CC(=O)Nc1ccc(S(=O)(=O)NC(C)C(C)C)cc1 (stereo not drawn)
28) CC(=O)C(C=Nc1nc(C)cc(C)n1)=C(C)O
29) O=C(CNC(=O)c1ccoc1)Nc1nncs1
30) Cc1ccc(NC(=O)C(C)(C)c2ccccc2)c(Br)c1

Compound,21,22,23,24,25,26,27,28,29,30
NPYLR7 agonist,16.2,-0.7,0.0,0.2,0.8,17.6,10.1,13.1,-3.0,0.2
NPYLR7 agonist max-min,12.9,-6.5,-9.6,0.4,-0.3,12.9,9.4,12.2,-3.0,-1.8

31) Cc1cccc(NC(=O)CN(C)C(=O)c2nn(-c3ccc(F)cc3)c3c2CCC3)c1C
32) CCOC(=O)Cn1c(=O)c2c(nc3n(C4CCCCC4)c(C)cn23)n(C)c1=O
33) CN(Cc1ccc(C(F)(F)F)cc1)Cn1c(=O)oc2ccccc21
34) CSc1nc(C)c(CCC(=O)Nc2ccccc2I)c(=O)[nH]1
35) CCC(C(=O)N1CCCN(C(=O)CCN2CCc3sccc3C2c2ccccc2C)CC1)c1ccccc1 (stereo not drawn)
36) O=C(N[C@@H]1CCCCC1NC(=O)C1CCCN(C(=O)CCCl)C1)c1ccc(F)cc1 (stereo partly drawn)
37) Cc1ccn2c(NC(C)(C)CC(C)(C)C)c(-c3ccc(OC(=O)CCc4ccccc4)cc3)nc2c1
38) CCCCN(CC(=O)N(CCc1ccc(OC)c(OC)c1)Cc1cccs1)C(=O)Nc1ccc(C(=O)OCC)cc1
39) Cc1ccn2c(=O)c(NC(=O)c3sc(C)nc3C)c(C)nc2c1
40) CC12CCC(C1)C(C)(C)C2(O)C#N (stereo not drawn)

Compound,31,32,33,34,35,36,37,38,39,40
NPYLR7 agonist,9.1,8.4,7.6,14.4,12.0,21.6,15.0,17.7,5.2,-4.9
NPYLR7 agonist max-min,8.5,6.7,4.3,17.7,-0.6,25.4,14.5,18.4,1.9,-6.7

41) CNC(=O)Cn1nc(C)c(C)c(C#N)c1=O
42) O=C(Cn1ncc2ccccc21)NCc1ccc(N2CCCC2=O)cc1
43) CC(C)NC(=O)c1cc(NC(=O)c2cccc(Cl)c2)ccc1N1CCc2ccccc2C1
44) COc1ccc(C(=O)N2CCSC23CCN(C(=O)c2cc(OC)cc(OC)c2)CC3)cc1
45) CN1CCCNC(=O)C12CCN(C(=O)C(=O)Nc1cccc(F)c1)CC2
46) NC(=O)NCCCC(=O)OCC(=O)c1ccc(Cl)s1
47) O=c1c(-c2ccc(I)cc2)[n+]([O-])c2ccccc2n1OCc1ccccn1
48) COc1cccc(Cc2nsc(N3CCN(C(=O)C(C)(C)CCl)C(C)C3)n2)c1 (stereo not drawn)
49) CCC(=O)c1cc(-c2nc3ccccc3n2C)n(C)c1
50) O=C(c1ccccc1)N1CCC(NCc2noc(C3CCCC3)n2)CC1

Compound,41,42,43,44,45,46,47,48,49,50
NPYLR7 agonist,7.6,-7.7,-0.8,1.1,8.7,-2.4,-5.2,9.9,16.5,0.3
NPYLR7 agonist max-min,8.4,-5.6,7.8,13.3,3.8,-3.2,-10.5,9.1,9.8,-0.2

Complete entries, quoted from the list. Order of screens: NPYLR7 agonist | NPYLR7 agonist max-min
CCOC(=O)Cn1c(=O)c2c(nc3n(C4CCCCC4)c(C)cn23)n(C)c1=O in the list: 8.4 | 6.7
CSc1nc(C)c(CCC(=O)Nc2ccccc2I)c(=O)[nH]1 in the list: 14.4 | 17.7
COc1ccc(N(Cc2cccs2)C(=O)Cn2cc(Br)ccc2=O)cc1 in the list: 2.9 | 0.4

(list continues)
51) Cn1cc(NC(=O)N(CCO)Cc2ccccc2)c2ccccc21
52) COC(=O)NC(C)C(=O)NCc1cccnc1N(C)C1CCCCC1 (stereo not drawn)
53) COc1ccc(NS(=O)(=O)c2c(N)n(C)c(=O)n(C)c2=O)cc1
54) CC12CCC(C(=O)Oc3ccc(-c4ccc(C#N)cc4)cc3)(CC1=O)C2(C)C (stereo not drawn)
55) CC1CN(c2cc(Oc3ccccc3F)ncn2)CCN1Cc1cccc(Cl)c1 (stereo not drawn)
56) CC(=O)Nc1ccc(C2=NOC(C)C(=O)N2CCOc2ccc(F)cc2)cc1 (stereo not drawn)
57) O=C(CN1CCOc2ccccc21)NCc1cnn(-c2ccccc2)c1
58) Cc1ccc(Cn2c(=O)c3c(nc4n(CCCO)c(C)cn34)n(C)c2=O)cc1
59) COC(=O)CN(C)C(=O)c1cccc(OC2CCN(S(=O)(=O)N(C)C)CC2)c1
60) CC1CCN(Cc2nnnn2CCCC(=O)N2CCNC(=O)C2c2cccc(F)c2)CC1 (stereo not drawn)

Compound,51,52,53,54,55,56,57,58,59,60
NPYLR7 agonist,2.0,2.4,0.3,-7.4,18.4,12.4,1.9,1.7,0.9,-8.0
NPYLR7 agonist max-min,-5.4,1.9,-2.1,-12.5,16.6,5.1,0.7,15.2,0.7,-10.8

61) COCCNC(=O)c1cc(NC(=O)Nc2ccccc2C(F)(F)F)ccc1N1CCC(Cc2ccccc2)CC1
62) CC(C)CC1COCCN1C(=O)Nc1ccccc1S(C)=O (stereo not drawn)
63) CC(NC(=O)N(C)C1CCc2ccccc21)c1nc(-c2ccc(F)cc2)no1 (stereo not drawn)
64) CCOC(=O)CSC1=NN2CCS(=O)(=O)N=C2S1
65) CC(C)CC(=O)Nc1ccc(N(C)C)c(CN(C(=O)c2cccc(F)c2)C2CC2)c1
66) CC1CN(C(=O)C(C)N2CCCCC2=O)CC1N1CCOCC1 (stereo not drawn)
67) O=C(NCc1cc(-c2ccccc2Cl)no1)C1CC2(CCNCC2)CN1 (stereo not drawn)
68) COc1cc(OC)c(CN2CC[C@@H](N)[C@@H](OC)C2)c(C(=O)O)c1
69) Cc1csc(C(C)N(C)C(=O)CC2(c3cccc(C(F)(F)F)c3)CC(=O)N(C3CC3)C2=O)n1 (stereo not drawn)
70) COCCN(CCC(=O)NC(C)c1ccccc1)c1nc(-c2ccc(OC)cc2)nc2ccccc12 (stereo not drawn)

Compound,61,62,63,64,65,66,67,68,69,70
NPYLR7 agonist,-6.0,27.0,-1.4,2.7,3.7,1.7,9.8,6.9,4.1,-19.0
NPYLR7 agonist max-min,3.8,24.0,10.8,0.7,12.2,2.9,6.4,6.5,1.8,-9.1

71) O=C(NCCc1ccccn1)c1cccnc1Sc1ccc(Cl)cc1
72) CCN(CC)CCN(C(=O)CCS(=O)(=O)c1ccccc1)c1nc2c(OC)ccc(C)c2s1
73) O=C(NCCn1ncc2c(N3CCCCC3)ncnc21)c1cc2ccccc2o1
74) CC(=O)N(CCN(C)C)c1nc2c(C)cc(C)cc2s1
75) CCCCS(=O)(=O)N1CCN(c2ncccc2C(=O)NCC2CCCO2)CC1 (stereo not drawn)
76) O=C(c1cccc(Cl)c1)N1CCCC(N2CCN(CCOc3ccccc3)CC2)C1 (stereo not drawn)
77) COc1ccc(C(NC(=O)C2CCN(CCOc3ccccc3OC)CC2)c2cccs2)cc1 (stereo not drawn)
78) CCC(C)n1c(C)cn2c3c(=O)n(CCC(C)C)c(=O)n(C)c3nc12 (stereo not drawn)
79) CCCOC1(C(F)(F)F)NC(=O)N(c2ccc(C(C)C)cc2)C1=O (stereo not drawn)
80) O=C1COCc2ccc(-c3cnc4ccccc4c3)cc2N1CCN1CCOCC1

Compound,71,72,73,74,75,76,77,78,79,80
NPYLR7 agonist,4.6,-12.0,0.8,-3.7,20.0,15.2,-12.2,13.6,-2.1,4.3
NPYLR7 agonist max-min,2.0,-12.6,1.3,-7.5,9.9,19.7,-14.0,8.5,-3.3,2.0

Looked up above.
O=C(NCCn1ncc2c(N3CCCCC3)ncnc21)c1cc2ccccc2o1 in NPYLR7 agonist has 0.8
COc1ccc(C(NC(=O)C2CCN(CCOc3ccccc3OC)CC2)c2cccs2)cc1 (stereo not drawn) in NPYLR7 agonist max-min has -14.0
CCCCS(=O)(=O)N1CCN(c2ncccc2C(=O)NCC2CCCO2)CC1 (stereo not drawn) in NPYLR7 agonist has 20.0
CCC(C)n1c(C)cn2c3c(=O)n(CCC(C)C)c(=O)n(C)c3nc12 (stereo not drawn) in NPYLR7 agonist has 13.6
CC(=O)N(CCN(C)C)c1nc2c(C)cc(C)cc2s1 in NPYLR7 agonist has -3.7
O=C1COCc2ccc(-c3cnc4ccccc4c3)cc2N1CCN1CCOCC1 in NPYLR7 agonist max-min has 2.0

Screen by screen, as entered above.
Compounds 72–77 in NPYLR7 agonist max-min, in turn: -12.6, 1.3, -7.5, 9.9, 19.7, -14.0
Compounds 72–77 in NPYLR7 agonist, in turn: -12.0, 0.8, -3.7, 20.0, 15.2, -12.2

Next part
81) CN1N=C(C(=O)Nc2ccc(Nc3ccccc3)cc2)CCC1=O
82) Cc1cccc(CN(C(=O)c2ccc(F)cc2)C2CCC(NC(=O)C3CCN(C(=O)c4ccco4)CC3)CC2)c1 (stereo not drawn)
83) Cc1ccc2c(c1)OC(C)CN2CC(N)=O (stereo not drawn)
84) COCCN(Cc1ccc(OS(=O)(=O)c2cccc(C(F)(F)F)c2)cc1)C(=O)c1ccc(F)cc1
85) O=C(NCCc1ccccc1)NCc1nnnn1C1CCCCC1
86) C=C(C)C(O)(C(=C)C)c1ccc(CN(Cc2ccsc2)Cc2ccco2)o1
87) Cc1cc(OCC(=O)Nc2ccc(C(C)C)cc2)no1
88) c1ccc(Oc2ccccc2-c2cnc3ccc(NCc4ccc5c(c4)OCO5)nn23)cc1
89) CCCc1cc(C(=O)N2C[C@@H]3[C@H](C2)[C@H]2CC[C@@H]3O2)no1
90) O=C(CCN1C(=O)CSC1c1cccc(C(F)(F)F)c1)NCc1ccc(F)cc1 (stereo not drawn)

Compound,81,82,83,84,85,86,87,88,89,90
NPYLR7 agonist,9.2,-1.0,3.5,-3.9,2.4,-2.0,-0.7,-1.6,9.1,18.3
NPYLR7 agonist max-min,8.5,6.9,0.4,-0.8,0.3,2.6,2.0,-6.3,7.9,27.4

From PubChem BioAssay

This is a subset, so the mix of outcomes need not match the whole.
